CFTR F508del: compounds raising F508del-CFTR protein level – cell-based, HeLa F508del-CFTR, immunofluorescence, viability, primary screen (AID 1224863) | HeLa F508del-CFTR, immunofluorescence total CFTR, 24 h; by the record results were divided by relative cell number; some inactives read as strong as hits | calls, or highest fold increase where a dose series was run | hit rate 0.1% among 10,000; in the data nearly all actives have a first-pass fold increase above 1.5; a few of its hits are not listed in these tables;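 also: total CFTR protein by anti-CFTR immunofluorescence in fixed cells; first pass at 25 µM or 10 µg/mL by library and series up to twice that; 1 = untreated cells; first-pass hits also needed half or more of the cells alive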
CFTR F508del fold 25 µM: second read-out of CFTR F508del, no call of its own (marks repeat the call); fold increase; measured here: primary screen single dose 25 uM; library dosed in µM
CFTR F508del fold 10 ug/mL: second read-out of CFTR F508del, no call of its own (marks repeat the call); fold increase; measured here: primary screen 10 ug/mL
CFTR F508del viability 25 µM: recorded beside CFTR F508del, whose call it bears; viability, %; measured here: primary viability 25 uM; library dosed in µM;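 0% = killed and 100% = untreated cells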
CFTR F508del viability 10 ug/mL: second read-out of CFTR F508del, no call of its own (marks repeat the call); viability, %; measured here: primary viability 10 ug/mL;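 0% = killed and 100% = untreated cells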
Numbers without * were called inactive; i = inactive; · = no result given; & = joins results of further samples. An excerpt; the hit share may differ from the screen's.

SMILES	CFTR F508del	CFTR F508del fold 10 ug/mL	CFTR F508del viability 10 ug/mL	others
COc1ccc(S(=O)(=O)NC2CCN(C3CC3)CC2)cc1[N+](=O)[O-]	i	1.1	114
CSc1nc(C)c(CCC(=O)NC(C)C(C)C)c(C)n1 (stereo not drawn)	i	0.96	93
CC(C)c1c(C(=O)O)cnn1CCO	i	1.1	87
CC(=O)Nc1sc(C)c(C)c1C(=O)OCC(=O)N(C)C	i	1.1	92
COc1ccc(NC(C)c2nc(C(C)C)no2)cc1Cl (stereo not drawn)	i	1.1	99
CS(=O)(=O)Cc1ccc(C(=O)N2CCSc3ccc(Cl)cc32)cc1	i	0.94	86
CCCCn1c(CN2CCN(S(=O)(=O)N(CC)CC)CC2)nc2cc(S(N)(=O)=O)ccc21	i	1	100
CCOC(=O)c1ccc(S(=O)(=O)N2CCN(Cn3nc4c(Cl)cc(Cl)cn4c3=S)CC2)cc1	i	1	93
CN(Cc1cccc([N+](=O)[O-])c1)Cn1ncc(Cl)c(Cl)c1=O	i	0.9	76
Cc1ccc2nc(CSc3ncccn3)cc(=O)n2c1	i	0.99	88
CC1OC(O[C@H]2/C=C/C=C/C=C/C=C/C=C/C=C/C=C/[C@H](C)[C@@H](O)[C@@H](C)[C@H](C)OC(=O)CC(O)CC(O)CCC(O)C(O)CC(O)CC3(O)C[C@H](O)C(C(=O)O)C(C2)O3)C(O)[C@H](N)C1O (stereo partly drawn)	i	·	·	CFTR F508del fold 25 µM=1.1;CFTR F508del viability 25 µM=99
CC1CC1C(=O)Nc1ccc2oc(C(C)(C)C)nc2c1 (stereo not drawn)	i	1	93
Cc1c(N(C)C)c(=O)n(-c2ccccc2)n1C	i	·	·	CFTR F508del fold 25 µM=1.1;CFTR F508del viability 25 µM=83
O=C1/C(=C/c2ccc(Br)s2)COc2ccccc21	1.5	1.5	70
CNc1cc(C)cc(C)c1	i	1.1	87
Nc1nc(Cl)nc2c1ncn2[C@@H]1O[C@H](CO)[C@@H](O)[C@@H]1F	i	·	·	CFTR F508del fold 25 µM=1.3&1.1;CFTR F508del viability 25 µM=84&92
O=C(N1CCN(c2ccc([N+](=O)[O-])cc2)CC1)C1(c2ccc(Cl)cc2)CC1	i	0.95	111
COc1ccc(OC)c2c1CN(c1ncnc3sc(-c4ccccc4)cc13)CC2O (stereo not drawn)	i	1.1	83
CN1C(CC(=O)c2ccccc2)CCCC1CC(O)c1ccccc1 (stereo not drawn)	i	·	·	CFTR F508del fold 25 µM=1.1;CFTR F508del viability 25 µM=80
CN1CCN(S(=O)(=O)N2CCN(S(=O)(=O)c3ccc(Cl)cc3C(F)(F)F)CC2)CC1	i	1.1	97
CC(C)[C@H](N)C(=O)OCCOCn1cnc2c(=O)[nH]c(N)nc21	i	·	·	CFTR F508del fold 25 µM=1.1&1.1;CFTR F508del viability 25 µM=91&94
CC(C)CC(NC(=O)C(C)NC(=O)CNC(=O)C(NC=O)C(C)C)C(=O)NC(C)C(=O)NC(C(=O)NC(C(=O)NC(C(=O)NC(Cc1c[nH]c2ccccc12)C(=O)NC(CC(C)C)C(=O)NC(Cc1c[nH]c2ccccc12)C(=O)NC(CC(C)C)C(=O)NC(Cc1c[nH]c2ccccc12)C(=O)NC(CC(C)C)C(=O)NC(Cc1c[nH]c2ccccc12)C(=O)NCCO)C(C)C)C(C)C)C(C)C (stereo not drawn)	i	·	·	CFTR F508del fold 25 µM=0.64;CFTR F508del viability 25 µM=14
CCCCNc1nnc(SCC(O)c2ccc(F)cc2)s1 (stereo not drawn)	i	1	100
CC(C)CNCCC(=O)O	i	0.91	94
CCCCCOC(=O)Nc1nc(=O)n([C@@H]2O[C@H](C)[C@@H](O)[C@H]2O)cc1F	i	·	·	CFTR F508del fold 25 µM=1.3&1;CFTR F508del viability 25 µM=95&103
NC(=O)c1cccnc1	i	·	·	CFTR F508del fold 25 µM=0.95&0.99;CFTR F508del viability 25 µM=105&94
CC(C)(C)[C@@]1(O)CCN2C[C@@H]3c4ccccc4CCc4cccc(c43)[C@H]2C1	i	·	·	CFTR F508del fold 25 µM=0.98;CFTR F508del viability 25 µM=81
O=C(NCCSC1CCCC1)Nc1ccc(F)cc1	i	0.9	83
COc1ccc(S(=O)(=O)N2CCCc3cc(F)cc(F)c32)cc1[N+](=O)[O-]	i	1.1	80
CC1CC(C)CN(c2ccc(S(C)(=O)=O)cc2S(C)(=O)=O)C1 (stereo not drawn)	i	1.1	95
CCCCn1c(=O)c2c(ncn2CC(C)=O)n(CCCC)c1=O	i	·	·	CFTR F508del fold 25 µM=1;CFTR F508del viability 25 µM=91
CCOC(=O)c1c(CCCO)cnc2nc(C(=O)OC)nn12	i	1.1	98
CC(CN(C)C)CN1c2ccccc2CCc2ccccc21 (stereo not drawn)	i	·	·	CFTR F508del fold 25 µM=1.1;CFTR F508del viability 25 µM=92
COC(=O)CCSc1nc2sc(C)c(C)c2c(=O)n1C(C)C	i	1.1	100
CCS(=O)(=O)NCCNS(=O)(=O)c1ccc(F)c(F)c1	i	1.2	102
CC(C)c1ccc(C2/C(=C(\O)c3ccc(Cl)cc3)C(=O)C(=O)N2CCN(C)C)cc1 (stereo not drawn)	i	1.1	104
Cc1ccc(CN(C)c2ccc(S(C)(=O)=O)cc2S(C)(=O)=O)cc1	i	0.99	90
CC(C)(C)c1ccc2c(c1)C(=O)C(=O)N2	i	0.91	100
O=C(OCc1nnc(-c2ccc([N+](=O)[O-])cc2)o1)c1ccc2c(c1)C(=O)N(c1ccc(F)cc1)C2=O	i	1.1	106
COc1cc2c(cc1OC)CN(c1nc3c(Cl)c(C)nn3c3ccccc13)CC2	i	0.97	82
Clc1ccc(SCc2nc(N3CCN(c4ccccn4)CC3)c3c4c(sc3n2)CCC4)cc1	i	1	107
CC1CCCC(NS(=O)(=O)c2cc3c(cc2Br)NC(=O)CO3)C1C (stereo not drawn)	i	0.85	81
N=C(N)N1CCc2ccccc2C1	i	·	·	CFTR F508del fold 25 µM=1.1&1.1;CFTR F508del viability 25 µM=100&107
CC(NC(=O)c1ccc(Br)o1)c1ccc(Cl)s1 (stereo not drawn)	i	0.87	81
CCCCCn1c(=O)c2ccccc2n2c(CN3c4cccc5cccc(c45)S3(=O)=O)nnc12	i	0.96	112
CCn1cc(C#N)c(=O)n(CC(=O)NC2(C)CCS(=O)(=O)C2)c1=O (stereo not drawn)	i	1	101
O=C(NC1CCCCCCC1)C1CC=CCC1 (stereo not drawn)	i	0.96	82
Cc1ccc(-c2cc(C(=O)N3CCC4CCCCC4C3)n[nH]2)s1 (stereo not drawn)	i	1.2	94
COC(=O)CNC(=O)c1c(C)oc(-n2cccc2)c1C#N	i	0.89	98
CN(CCOc1ccc(Br)cc1)Cn1ncn(C)c1=S	i	0.93	98
O=C(O)c1cc(=O)c2c(OCC(O)COc3cccc4oc(C(=O)O)cc(=O)c34)cccc2o1	i	·	·	CFTR F508del fold 25 µM=1.1&1.1;CFTR F508del viability 25 µM=93&99
CC(=O)OCC(=O)[C@H]1CCC2C3CCC4=CC(=O)CC[C@]4(C)C3CC[C@@]21C (stereo partly drawn)	i	·	·	CFTR F508del fold 25 µM=0.85;CFTR F508del viability 25 µM=89
CC(Sc1nnc(C2CCS(=O)(=O)C2)n1C)C(=O)C12CC3CC(CC(C3)C1)C2 (stereo not drawn)	i	0.88	94
CN1C(CCl)Nc2cc(Cl)c(S(N)(=O)=O)cc2S1(=O)=O (stereo not drawn)	i	·	·	CFTR F508del fold 25 µM=1;CFTR F508del viability 25 µM=92
O=c1c(-c2ccc(O)cc2)coc2cc(O)ccc12	i	·	·	CFTR F508del fold 25 µM=0.9;CFTR F508del viability 25 µM=90
COc1ccc(OC)c2c1CN(c1nc(C)nc3scc(-c4ccccc4)c13)CC2O (stereo not drawn)	i	0.98	85
Cc1cc(CSc2nnc(-c3cc4c(s3)CCC(C)C4)o2)no1 (stereo not drawn)	i	1.1	105
CON(C)S(=O)(=O)c1ccc(C)c(C)c1	i	0.96	91
Cc1ccc(C)c(C(=O)CN2C(=O)NC(C)(c3ccc(C(C)(C)C)cc3)C2=O)c1 (stereo not drawn)	i	1	77
CCCn1c(=O)n(C)c(=O)c2c(SC3CCOC3=O)nc(CC(C)C)nc21 (stereo not drawn)	i	0.99	102
(more compounds)
SMILES	CFTR F508del	CFTR F508del fold 10 ug/mL	CFTR F508del viability 10 ug/mL	others
O=c1c2cc(Cl)ccc2ncn1Cc1cc(-c2ccco2)on1	i	0.91	100
O=C(O)CCNC(=O)c1ccccc1	i	·	·	CFTR F508del fold 25 µM=1.1;CFTR F508del viability 25 µM=94
Cc1cc(C(=O)N2CCN(S(=O)(=O)N3CCC(C)CC3)CC2)on1	i	0.95	102
Cc1cc(/C(O)=C2\C(=O)C(=O)N(Cc3cccnc3)C2c2ccncc2)ccc1OCC(C)C (stereo not drawn)	i	1.1	104
COCCN(C(=O)C1(C)CC1(Cl)Cl)c1nc2ccccc2s1 (stereo not drawn)	i	0.92	82
O=[N+]([O-])c1ccc(/C=C/c2nc(-c3ccc(F)cc3)cs2)cc1	3	1.6	92
O=C(C1CCCCC1)N1CCCC1	i	1	89
CCCCCCOc1ccccc1C(N)=O	i	·	·	CFTR F508del fold 25 µM=0.98;CFTR F508del viability 25 µM=86
NC(=O)CC(F)(F)F	i	1.1	102
C[N+](C)(CCOc1ccccc1)Cc1ccccc1	i	·	·	CFTR F508del fold 25 µM=1.1;CFTR F508del viability 25 µM=111
Cc1cc(-c2csc(NCC(C)C)n2)c(C)n1-c1ccc2c(c1)OCCO2	i	1.2	87
CC12CCC(C(C(=O)C(=O)O)C1=O)C2(C)C (stereo not drawn)	i	1.1	112
N#Cc1ccccc1Cn1nnc(-c2ccccc2Br)n1	i	0.96	92
CCCCn1cnc2c1c(=O)n(CCC#N)c(=O)n2CC(C)C	i	1	105
O=C1NC2(CCCC2)C(=O)N1CN1CCCC1c1ccccc1 (stereo not drawn)	i	1	101
O=C(OCc1nc(COc2ccc(F)cc2)no1)c1cc([N+](=O)[O-])ccc1N1CCCC1	i	0.97	81
O=C(O)CCOc1ccc(Cl)cc1Cl	i	0.98	96
O=C(COc1ccc(C(=O)c2ccc(F)cc2)cc1)c1ccc2c(c1)CCO2	i	0.99	101
COc1cc(CN2CCc3cc(S(N)(=O)=O)ccc32)c([N+](=O)[O-])cc1OC(F)F	i	0.92	76
Cc1cc([N+](=O)[O-])cc(S(=O)(=O)NC(C)(C)C)c1C	i	0.89	94
CN(Cc1nc(-c2ccc([N+](=O)[O-])cc2)no1)C1CCc2ccccc21 (stereo not drawn)	i	0.98	100
COC(=O)C1(NS(=O)(=O)c2ccc3c(c2)OCCO3)CCCCC1	i	1.1	83
S=c1n(CN(Cc2ccc(Br)cc2)C2CC2)nc2ccccn12	i	1.1	89
CN1CCN(C(=O)CN2C(=O)NC(C)(C3CC3)C2=O)c2nc3ccccc3nc21 (stereo not drawn)	i	0.91	88
Cc1cc(C)c(S(=O)(=O)N2CCN(Cn3ccccc3=S)CC2)c(C)c1	i	0.91	96
c1ccc(SCCN2CCNCC2)cc1	i	1.1	93
Fc1cc(Br)ccc1Cn1c(C(F)(F)F)nc2ccccc21	i	0.99	93
Cc1sc2nc(-c3cccnc3)nc(N3CCN(CCO)CC3)c2c1C	i	1	99
CCCSc1nnc(SC(C)C(=O)NC(N)=O)s1 (stereo not drawn)	i	0.94	90
C#C[C@]1(O)CC[C@H]2[C@@H]3CCc4cc(OC)ccc4[C@H]3CC[C@@]21C	i	·	·	CFTR F508del fold 25 µM=1;CFTR F508del viability 25 µM=94
O=S(=O)(c1ccc(Cl)s1)N(Cc1cccnc1)c1ccc2c(c1)OCO2	i	1.1	75
CCOc1ccc(Br)cc1S(=O)(=O)NC(C)C12CC3CC(CC(C3)C1)C2 (stereo not drawn)	i	0.96	85
CN(C)C(=O)c1cnc2sccn2c1=O	i	1.1	105
CCCCn1c(N)c(N(CCOC)C(=O)CN2C(=O)NC3(CCC(C(C)(C)CC)CC3)C2=O)c(=O)[nH]c1=O (stereo not drawn)	i	1	102
Cn1nnnc1SCc1ccc(Cl)c2cccnc12	i	1	93
COc1ccc(C(C)(C)C)cc1Nc1ccc2nnnn2n1	i	0.93	73
CC1CCC2(CC1)NC(=O)N(CC(=O)NC(=O)NC(C)(C)C)C2=O (stereo not drawn)	i	1	92

Random excerpt: six compounds from above.
SMILES	CFTR F508del	CFTR F508del fold 10 ug/mL	CFTR F508del viability 10 ug/mL	others
CCOc1ccc(Br)cc1S(=O)(=O)NC(C)C12CC3CC(CC(C3)C1)C2 (stereo not drawn)	i	0.96	85
CCCCn1c(N)c(N(CCOC)C(=O)CN2C(=O)NC3(CCC(C(C)(C)CC)CC3)C2=O)c(=O)[nH]c1=O (stereo not drawn)	i	1	102
Cn1nnnc1SCc1ccc(Cl)c2cccnc12	i	1	93
Fc1cc(Br)ccc1Cn1c(C(F)(F)F)nc2ccccc21	i	0.99	93
S=c1n(CN(Cc2ccc(Br)cc2)C2CC2)nc2ccccn12	i	1.1	89
C#C[C@]1(O)CC[C@H]2[C@@H]3CCc4cc(OC)ccc4[C@H]3CC[C@@]21C	i	·	·	CFTR F508del fold 25 µM=1;CFTR F508del viability 25 µM=94

An excerpt of the results above:
SMILES	CFTR F508del	CFTR F508del fold 10 ug/mL	CFTR F508del viability 10 ug/mL	others
COc1ccc(S(=O)(=O)NC2CCN(C3CC3)CC2)cc1[N+](=O)[O-]	i	1.1	114
CSc1nc(C)c(CCC(=O)NC(C)C(C)C)c(C)n1 (stereo not drawn)	i	0.96	93

Assay outcomes: PubChem, Southern Research Institute
